HIV Env fusion – inhibitors of HIV-1 Env-driven cell-cell fusion, primary screen, HeLa-JRFL effector, CEM21 target cells, luciferase; inhibition, % at 12.3 µM; 360,000 tested, 1.1% active; AID 651610, 2012;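 active means mean replicate inhibition score of at least 50 and every replicate individually at or above 50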;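 further: 0% = plate neutral controls and 100% = maraviroc near 300 nM; one replicate is shown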
Active calls of the source: *; [ ] = dose if it differs, or a comment. Some of the compounds tested; count on the stated rates, not on these rows.

No.	canonical_smiles	HIV Env fusion
1	COc1ccc(S(=O)(=O)N(C)C[C@H]2Oc3c(NC(=O)Nc4ccc(F)cc4)cccc3C(=O)N([C@@H](C)CO)C[C@H]2C)cc1	39[16.7 µM]
2	CO[C@H]1CN(C)C(=O)c2ccc(NC(=O)C3CCCC3)cc2OC[C@@H](C)N(S(C)(=O)=O)C[C@@H]1C	-4[16.7 µM]
3	CO[C@H]1CN(C)C(=O)c2ccc(NS(C)(=O)=O)cc2OC[C@@H](C)N(S(C)(=O)=O)C[C@@H]1C	2[16.7 µM]
4	N#C[C@@H]1[C@H](c2ccc(C3=CCCC3)cc2)[C@@H](CO)N1C(=O)NC1CCCCC1	3[16.7 µM]
5	CNC[C@H]1Oc2ccc(NS(=O)(=O)c3ccccc3)cc2CC(=O)N([C@@H](C)CO)C[C@H]1C	1[16.7 µM]
6	CC(C)OC(=O)N(C)C[C@@H]1OCc2ccccc2-c2ccccc2C(=O)N([C@H](C)CO)C[C@@H]1C	14[16.7 µM]
7	COc1cccc(CNC(=O)[C@H]2CCCN2C(=O)[C@H]2CCCN2C(=O)c2c(F)cccc2F)c1	-24
8	CO[C@H]1CN(C)C(=O)c2ccc(NS(=O)(=O)c3cccc(F)c3)cc2OC[C@H](C)NC[C@@H]1C	-38[16.7 µM]
9	C[C@H](CO)N1C[C@H](C)[C@H](CN(C)Cc2ccncc2)Oc2ccc(NC(=O)Nc3cccc4ccccc34)cc2C1=O	9[16.7 µM]
10	CO[C@@H]1CN(C)C(=O)c2cc(NS(=O)(=O)c3cn(C)cn3)ccc2OC[C@@H](C)N(CCC(F)(F)F)C[C@H]1C	8[16.7 µM]

Carrying on.
No.	canonical_smiles	HIV Env fusion
11	O=C(C[C@H]1C[C@H]2c3cc(NC(=O)CC4CC4)ccc3O[C@H]2[C@H](CO)O1)NCC1CC1	-14[16.7 µM]
12	Cc1cc(N2CCN(CC(C)(C)O)C[C@H]2C)ccc1N1CCN(Cc2ccccc2)[C@@H](C)C1	23
13	CO[C@@H]1CN(C)C(=O)c2cc(NC(=O)Nc3cccc(F)c3)ccc2OC[C@@H](C)N(C(=O)Nc2c(C)noc2C)C[C@@H]1C	0[16.7 µM]
14	COc1ccccc1NC(=O)Nc1ccc2c(c1)C(=O)N(C)C[C@H](OC)[C@H](C)CN[C@H](C)CO2	5[16.7 µM]
15	COC(=O)[C@]12C[C@H](CC(=O)NCc3cccc(C(F)(F)F)c3)C(=O)N(Cc3ccccc3)C1=C[C@H](C(C)C)O[C@@H]2C1CC1	38
16	CCCN1C[C@H](C)[C@@H](OC)CN(C)C(=O)c2cc(NC(=O)c3cnccn3)ccc2OC[C@@H]1C	10[16.7 µM]
17	S=C(SCc1cc(Cl)cc2c1OCOC2)N1CCSCC1	17
18	COc1cccc(C(=O)Nc2ccc3c(c2)C(=O)N(C)C[C@@H](OC)[C@H](C)CN[C@@H](C)CO3)c1	-7[16.7 µM]
19	O=C(C[C@@H]1C[C@H]2c3cc(NS(=O)(=O)c4ccccc4)ccc3O[C@H]2[C@H](CO)O1)NCC(F)(F)F	47[16.7 µM]
20	COC(=O)C[C@@H]1C[C@@H]2c3cc(NC(=O)NC4CCCC4)ccc3O[C@@H]2[C@H](CO)O1	-2[16.7 µM]

Some of the entries above in another layout:
cpd	HIV Env fusion	SMILES
10	8[16.7 µM]	CO[C@@H]1CN(C)C(=O)c2cc(NS(=O)(=O)c3cn(C)cn3)ccc2OC[C@@H](C)N(CCC(F)(F)F)C[C@H]1C
11	-14[16.7 µM]	O=C(C[C@H]1C[C@H]2c3cc(NC(=O)CC4CC4)ccc3O[C@H]2[C@H](CO)O1)NCC1CC1
12	23	Cc1cc(N2CCN(CC(C)(C)O)C[C@H]2C)ccc1N1CCN(Cc2ccccc2)[C@@H](C)C1
13	0[16.7 µM]	CO[C@@H]1CN(C)C(=O)c2cc(NC(=O)Nc3cccc(F)c3)ccc2OC[C@@H](C)N(C(=O)Nc2c(C)noc2C)C[C@@H]1C
14	5[16.7 µM]	COc1ccccc1NC(=O)Nc1ccc2c(c1)C(=O)N(C)C[C@H](OC)[C@H](C)CN[C@H](C)CO2
15	38	COC(=O)[C@]12C[C@H](CC(=O)NCc3cccc(C(F)(F)F)c3)C(=O)N(Cc3ccccc3)C1=C[C@H](C(C)C)O[C@@H]2C1CC1
16	10[16.7 µM]	CCCN1C[C@H](C)[C@@H](OC)CN(C)C(=O)c2cc(NC(=O)c3cnccn3)ccc2OC[C@@H]1C
17	17	S=C(SCc1cc(Cl)cc2c1OCOC2)N1CCSCC1
18	-7[16.7 µM]	COc1cccc(C(=O)Nc2ccc3c(c2)C(=O)N(C)C[C@@H](OC)[C@H](C)CN[C@@H](C)CO3)c1

(list continues)
No.	canonical_smiles	HIV Env fusion
21	C[C@H](CO)N1C[C@H](C)[C@@H](CN(C)S(C)(=O)=O)Oc2ccc(NC(=O)Nc3cccc4ccccc34)cc2CC1=O	17[16.7 µM]
22	O=C(C[C@H]1CC[C@H](NC(=O)c2cccc(F)c2)[C@@H](CO)O1)NCCN1CCCC1	-6[16.7 µM]
23	CCOC(=O)OC[C@@H]1[C@@H]2NC(=O)N(C)[C@@]1(COCc1ccc(OC)cc1)Oc1ccccc12	-3[16.7 µM]
24	CC(C)CC#Cc1ccc2c(c1)O[C@H](CN(C)C(=O)C1CC1)[C@H](C)CN([C@@H](C)CO)S2(=O)=O	16[16.7 µM]
25	C[C@H]1CCCCO[C@H](CN(C)C(=O)Cc2ccccc2)[C@@H](C)CN([C@@H](C)CO)C(=O)c2cc(N(C)C)ccc2O1	-1[16.7 µM]
26	CN(C)CC(=O)N1[C@H](CO)[C@H](c2ccc(C#CC3CCCCC3)cc2)[C@@H]1C#N	0[16.7 µM]
27	C[C@@H]1CN([C@H](C)CO)C(=O)CCCn2cc(nn2)CO[C@@H]1CN(C)C(=O)Nc1ccc2c(c1)OCCO2	-1[16.7 µM]
28	O=C(NC1CCC1)[C@H]1[C@H](CO)[C@H]2Cn3c(ccc(C4=CCCC4)c3=O)[C@H]2N1C(=O)C1CCC1	9[16.7 µM]
29	CCCC#Cc1cnc2c(c1)C(=O)N([C@H](C)CO)C[C@H](C)[C@H](CN(C)C(=O)CN1CCOCC1)O2	5[16.7 µM]
30	C[C@@H]1CN([C@H](C)CO)S(=O)(=O)c2ccc(-c3ccc(F)cc3)cc2O[C@@H]1CN(C)C(=O)C1CCC1	17[16.7 µM]

Next structures follow:
No.	canonical_smiles	HIV Env fusion
31	O=C(C[C@@H]1C[C@@H]2c3cc(NC(=O)c4cccnc4)ccc3O[C@@H]2[C@@H](CO)O1)NCCc1ccccc1	13[16.7 µM]
32	COCC(=O)Nc1ccc2c(c1)OC[C@H](C)N(Cc1cccnc1)C[C@@H](C)[C@@H](OC)CN(C)C2=O	4[16.7 µM]
33	C[C@@H]1CN([C@@H](C)CO)C(=O)c2cc(NC(=O)Nc3ccc(F)cc3)ccc2O[C@H]1CN(C)C(=O)Nc1ccc2c(c1)OCO2	-42[16.7 µM]
34	CCCC(=O)Nc1ccc2c(c1)OC[C@@H](C)NC[C@@H](C)[C@@H](OC)CN(C)C2=O	2[16.7 µM]
35	NC(=O)NCC#Cc1ccc2c(c1)[C@]1(C(=O)N2)[C@H](c2ccccc2OCCO)N2[C@H](c3ccccc3)[C@H](c3ccccc3)OC(=O)[C@H]2[C@@H]1C(=O)N1CCCCCCC1	-16[16.7 µM]
36	CCCNC(=O)N1C[C@@H](C)[C@@H](OC)CN(C)C(=O)c2cc(NS(C)(=O)=O)ccc2OC[C@@H]1C	10[16.7 µM]
37	C[C@H](NC(=O)C[C@@H]1C[C@H]2c3cc(NC(=O)Cc4ccncc4)ccc3O[C@H]2[C@@H](CO)O1)c1ccccc1	-2[16.7 µM]
38	CC=Cc1ccc2n(c1=O)C[C@H]1[C@H](CO)[C@@H](C(=O)NCCCN3CCOCC3)[C@@H]2N1Cc1cocn1 (mixture of isomers)	3[16.7 µM]
39	Cc1noc(C)c1NC(=O)Nc1ccc2c(c1)C(=O)N(C)[C@@H]1CC[C@H](CC(=O)NCc3ccc(Cl)cc3)O[C@H]1CO2	-2[16.7 µM]
40	C[C@@H]1CN([C@@H](C)CO)S(=O)(=O)c2ccc(-c3ccccc3)cc2O[C@H]1CN(C)C(=O)C1CCC1	2[16.7 µM]

Next section.
No.	canonical_smiles	HIV Env fusion
41	CCNC(=O)N1CCN(c2ccc(N3CCN(C(=O)NCC)[C@H](C)C3)c(C)c2)[C@H](C)C1	-1
42	C[C@@H]1CN([C@@H](C)CO)C(=O)Cc2cc(NC(=O)Cc3ccccc3)ccc2O[C@H]1CN(C)Cc1ccc(C(F)(F)F)cc1	15[16.7 µM]
43	O=C(N[C@H]1CC[C@H](CCNC(=O)c2cnccn2)O[C@H]1CO)c1ccc2c(c1)OCO2	1[16.7 µM]
44	CC(C)(C)[S@@](=O)N1Cc2cc(C(=O)N3CCOCC3)nc(-c3cccc(-c4ccccc4F)c3)c2[C@H]1CCO	-2[16.7 µM]
45	CCCNC(=O)Nc1ccc2c(c1)OC[C@@H](C)N(C(=O)CC)C[C@@H](C)[C@H](OC)CN(C)C2=O	-8[16.7 µM]
46	C=CC[C@]12C[C@@]3(O[C@H](C4CCCCC4)N=C3C[C@H](c3ccc(OC)cc3)[C@H]1C)N(Cc1ccncc1)C2=O	-40
47	C[C@H](CO)N1C[C@H](C)[C@@H](CN(C)CC2CC2)OCCCC[C@H](C)Oc2ccc(NC(=O)CCC(F)(F)F)cc2C1=O	-8[16.7 µM]
48	C[C@H]1CN([C@@H](C)CO)C(=O)Cc2cc(NC(=O)CCN3CCOCC3)ccc2O[C@H]1CN(C)Cc1ccncc1	4[16.7 µM]
49	C[C@@H]1CN([C@@H](C)CO)S(=O)(=O)c2ccc(C#Cc3cccc(F)c3)cc2O[C@@H]1CN(C)C(=O)NC1CCCCC1	-11[16.7 µM]
50	C[C@@H]1CN([C@H](C)CO)C(=O)CCCn2cc(nn2)CO[C@H]1CN(C)Cc1ccc2c(c1)OCCO2	-12[16.7 µM]

Continued.
No.	canonical_smiles	HIV Env fusion
51	COc1ccc(N/C(=C\C(=O)c2ccccc2)c2ccccc2)cc1OC	-3
52	CCNC(=O)N1CCN(c2ccc(N3CCN(Cc4ccccc4)[C@H](C)C3)c(C)c2)[C@H](C)C1	6
53	CN1C(=O)c2cc(NC(=O)c3ccccc3F)ccc2OC[C@@H]2O[C@@H](CC(=O)NCc3ccc4c(c3)OCO4)CC[C@@H]21	17[16.7 µM]
54	Cc1noc(C)c1S(=O)(=O)N(C)C[C@H]1Oc2ccc(NS(=O)(=O)c3ccc(F)cc3)cc2CC(=O)N([C@H](C)CO)C[C@@H]1C	0[16.7 µM]
55	C[C@@H](NC(=O)C[C@@H]1C[C@@H]2c3cc(NC(=O)c4cccnc4)ccc3O[C@@H]2[C@@H](CO)O1)c1ccccc1	-2[16.7 µM]
56	CO[C@@H]1CC[C@H]2CCOc3ccc(C#N)cc3C(=O)N(C)CCCC(=O)N(C)C[C@H]1O2	19[16.7 µM]
57	CN(c1ccc(NC(=O)Cc2cn(C)c3ccccc23)cc1)c1ccccn1	21
58	C[C@H](CO)N1C[C@H](C)[C@H](CN(C)Cc2ccc(Oc3ccccc3)cc2)Oc2c(NS(=O)(=O)c3ccc(F)cc3)cccc2C1=O	-37[16.7 µM]
59	CN1C(=O)c2cc(NC(=O)c3cccs3)ccc2OC[C@H]2O[C@H](CC(=O)N3CCCCC3)CC[C@@H]21	1[16.7 µM]
60	CO[C@H](C(=O)N(C)C[C@H]1OCc2ccccc2-c2ccccc2C(=O)N([C@H](C)CO)C[C@H]1C)c1ccccc1	-17[16.7 µM]

New compounds follow
No.	canonical_smiles	HIV Env fusion
61	Cc1ccc(S(=O)(=O)Nc2ccc3c(c2)C(=O)N(C)[C@H]2CC[C@H](CC(=O)NCCc4ccncc4)O[C@H]2CO3)cc1	0[16.7 µM]
62	Cc1noc(C)c1NC(=O)Nc1ccc2c(c1)C(=O)N(C)[C@H]1CC[C@@H](CC(=O)NCc3ccc(Cl)cc3)O[C@@H]1CO2	4[16.7 µM]
63	CC(=O)N1[C@@H]2Cn3c(ccc(C4=CCCCC4)c3=O)[C@H]1[C@@H](C(=O)N[C@@H](C)c1ccccc1)[C@@H]2CO	6[16.7 µM]
64	CN1C(=O)c2cc(NC(=O)c3ccc(F)c(F)c3)ccc2OC[C@@H]2O[C@@H](CC(=O)N[C@@H]3CCN(Cc4ccccc4)C3)CC[C@@H]21	-21[16.7 µM]
65	Cc1noc(C)c1NC(=O)N(C)C[C@@H]1Oc2ccc(NC(=O)Nc3ccc(F)cc3)cc2CC(=O)N([C@H](C)CO)C[C@H]1C	-10[16.7 µM]
66	COC(=O)[C@]12C[C@H](CC(=O)N3CCSCC3)C(=O)N(Cc3ccccc3)C1=C[C@H](C(C)(C)C)O[C@@H]2C	9
67	CC(=O)Nc1ccc(S(=O)(=O)N2CCN(C(=O)C(=O)c3cccc(C(F)(F)F)c3)CC2)cc1	5
68	CCCCCCC12C(=Cc3cc4c(cc31)OCCO4)c1cc(OC)c(OC)cc1C(CC(=O)OC)N2C(=O)OC (stereo not given)	1
69	COC(=O)c1cccc2c([N+](=O)[O-])c(NC(C)=O)cc(C(=O)OC)c12	-2
70	CCCNC(=O)C[C@@H]1CC[C@@H]2[C@H](COc3ccc(NC(=O)c4ccc5c(c4)OCO5)cc3C(=O)N2C)O1	6[16.7 µM]

Following part
No.	canonical_smiles	HIV Env fusion
71	COc1ccccc1CNS(=O)(=O)c1ccc(F)cc1Br	6
72	CCCc1ccc(-c2cc(NC(=O)Cc3c(C)[nH]c4ccccc34)ccc2Nc2cccnc2)cc1	-5
73	Cc1noc(C)c1C(=O)N(C)C[C@H]1OCc2ccccc2-c2c(n(C)c3ccccc23)C(=O)N([C@H](C)CO)C[C@H]1C	-19[16.7 µM]
74	C[C@@H]1CCCCO[C@@H](CN(C)CC2CC2)[C@H](C)CN([C@@H](C)CO)C(=O)c2cc(NS(=O)(=O)c3ccccc3)ccc2O1	-11[16.7 µM]
75	CS(=O)(=O)Nc1ccc2c(c1)[C@H]1C[C@H](CC(=O)NCc3ccccn3)O[C@H](CO)[C@H]1O2	0[16.7 µM]
76	Nc1cc(=O)n(Cc2ccccc2)c(N)c1C(=O)NCc1ccccc1	34
77	COc1ccc(OC)c(CN(CC(F)(F)F)S(=O)(=O)c2ccccc2Br)c1	2
78	CO[C@@H](C(=O)N(C)C[C@@H]1OCc2ccccc2-c2ccccc2C(=O)N([C@@H](C)CO)C[C@@H]1C)c1ccccc1	10[16.7 µM]
